High-throughput results deposited in PubChem BioAssay by National Center for Advancing Translational Sciences (NCATS).
Methyltransferases – Primary Screen for Target Class Profiling of Small Molecule Inhibitors of Methyltransferases | purified enzyme, MTase-Glo SAH luminescence; hits give low values | AID 1745853, 2022 | calls only at 40 µM | actives 3.9% (n = 25,000); active = -50% or lower on at least one of six enzymes; inconclusive = the cases between; inactive = as a rule above -30% on all six;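 note: enzymes were COMT GAMT GNMT HNMT NNMT and PNMT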
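Each enzyme was assayed with SAM and its substrate. SAH formation detected by MTase-Glo luminescence; single-point 40 uM screen[…].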
Calls only; i = inactive; u = inconclusive; + = active, no number. % is set by controls: 0 for no effect and ±100 for the full control effect.

SMILES	Methyltransferases
Cc1cc(C)cc(NC(=O)N2Cc3ccccc3-n3cccc3C2C)c1 (stereo not given)	i
CCC1(N2CCN(C(=O)COc3ccc(Cl)cc3C)CC2)CCN(C(=O)NC)C1 (stereo not given)	i
C[C@]12CC[C@H](O)C[C@H]1CC[C@@H]1[C@@H]2[C@H](O)C[C@]2(C)[C@@H](c3ccc(=O)oc3)CC[C@]12O	i
Cc1cc(C)cc(NC(=O)N2Cc3ccccc3-n3cccc3C2c2ccc(Cl)cc2)c1 (stereo not given)	i
Cc1ccc(Cn2nc(C(=O)N[C@@H]3C(C)(C)[C@@H]4CC[C@@]3(C)C4)cc2-c2ccc(Cl)c(C)c2)cc1	i
Cc1cccc(NC(=O)N2Cc3ccccc3-n3cccc3C2C)c1 (stereo not given)	i
CC(=O)Nc1ccc(OC[C@](C)(O)C(=O)Nc2ccc([N+](=O)[O-])c(C(F)(F)F)c2)cc1	i
CC1=CC2/C=C(\C)CCC(O)C(O)/C=C/C(=O)OC23C(=O)NC(CC(C)C)C3C1C (stereo not given)	i
Clc1ccc([C@]23CNC[C@H]2C3)cc1Cl	+
CC(C)(C)OC(=O)NC1[C@H]2CNC[C@@H]12 (stereo not given in full)	i
C[C@]12CC[C@@H]3c4ccc(OC(=O)N(CCCl)CCCl)cc4CC[C@H]3[C@@H]1CC[C@@H]2OP(=O)(O)O	u
COC(=O)CCNC(=O)N1Cc2ccccc2-n2cccc2C1c1ccc(Cl)cc1 (stereo not given)	i
COc1ccc2[nH]c(-c3ccccc3)c(CCN(C)C)c2c1	i
COc1ccc(C2c3cccn3-c3ccccc3CN2C(=O)Nc2ccc(C)c(F)c2)cc1 (stereo not given)	i
Cc1ccc(NC(=O)N2Cc3ccccc3-n3cccc3C2c2cccc(Cl)c2)c(Cl)c1 (stereo not given)	i
O=C(NCc1ccc(F)cc1)N1Cc2ccccc2-n2cccc2C1c1cccc(Cl)c1 (stereo not given)	i
CCCN1CCc2cc(O)cc3c2[C@H]1Cc1ccc(O)c(O)c1-3	+
CCc1ccc(C2c3cccn3-c3ccccc3CN2C(=O)Nc2ccc(C)cc2C)cc1 (stereo not given)	i
COc1ccc(NC(=O)N2Cc3ccccc3-n3cccc3C2c2ccccc2)c(OC)c1 (stereo not given)	i
O=C(O)C1=NOC2CN(CC3CCCCC3)CC12 (stereo not given)	i
Cc1cccc(NC(=O)N2Cc3ccccc3-n3cccc3C2C)c1C (stereo not given)	i
COC(=O)c1ccc(NC(=O)N2Cc3ccccc3-n3cccc3C2c2cccs2)cc1 (stereo not given)	i
CCC1c2cccn2-c2ccccc2CN1C(=O)Nc1cccc(Br)c1 (stereo not given)	i
Cc1cccc(NC(=O)N2Cc3ccccc3-n3cccc3C2c2cccc(C)c2)c1 (stereo not given)	i
CCC1c2cccn2-c2ccccc2CN1C(=O)Nc1cc(F)ccc1F (stereo not given)	i
C[C@@H]1CCC2[C@@H](C)C(=O)OC3O[C@@]4(C)CCC1[C@]32OO4 (stereo not given in full)	u
CC(C)C1=NOC2(CCCN(Cc3ccccn3)C2)C1 (stereo not given)	i
COc1ccc(C2c3cccn3-c3ccccc3CN2C(=O)Nc2cccc(Br)c2)cc1 (stereo not given)	i
CC(=O)OC12C(O)C(C)C3(O)C4C=C(C)C(=O)C4CC(CO)=CC3C1C2(C)C (stereo not given)	i
Cc1ccc(NC(=O)N2Cc3ccccc3-n3cccc3C2C)cc1 (stereo not given)	i
Cc1ccc(C)c(NC(=O)N2Cc3ccccc3-n3cccc3C2c2ccc(Cl)cc2)c1 (stereo not given)	i
CCc1ccc(NC(=O)N2Cc3ccccc3-n3cccc3C2c2ccc(SC)cc2)cc1 (stereo not given)	i
COc1ccc(C2c3cccn3-c3ccccc3CN2C(=O)Nc2ccc(OC)cc2OC)cc1 (stereo not given)	i
O=C(Nc1ccccc1F)N1Cc2ccccc2-n2cccc2C1c1ccc(Cl)cc1 (stereo not given)	i
CC(C)C1c2cccn2-c2ccccc2CN1C(=O)Nc1ccccc1F (stereo not given)	i
CCCN1CCO[C@@H]2c3cc(O)ccc3OC[C@H]21	i
CSc1ccc(C2c3cccn3-c3ccccc3CN2C(=O)NCc2ccc(F)cc2)cc1 (stereo not given)	i
COc1ccc(C)cc1NC(=O)N1Cc2ccccc2-n2cccc2C1C (stereo not given)	i
CCC1c2cccn2-c2ccccc2CN1C(=O)Nc1ccccc1C (stereo not given)	i
COc1ccccc1NC(=O)N1Cc2ccccc2-n2cccc2C1c1cccs1 (stereo not given)	i

5 records drawn at random from the list so far:
SMILES	Methyltransferases
COc1ccc(C2c3cccn3-c3ccccc3CN2C(=O)Nc2cccc(Br)c2)cc1 (stereo not given)	i
COc1ccc(C2c3cccn3-c3ccccc3CN2C(=O)Nc2ccc(OC)cc2OC)cc1 (stereo not given)	i
Cc1cccc(NC(=O)N2Cc3ccccc3-n3cccc3C2C)c1C (stereo not given)	i
CCc1ccc(NC(=O)N2Cc3ccccc3-n3cccc3C2c2ccc(SC)cc2)cc1 (stereo not given)	i
COC(=O)c1ccc(NC(=O)N2Cc3ccccc3-n3cccc3C2c2cccs2)cc1 (stereo not given)	i

Structural class: those above with a thiophene ring, fused or not.
SMILES	Methyltransferases
COC(=O)c1ccc(NC(=O)N2Cc3ccccc3-n3cccc3C2c2cccs2)cc1 (stereo not given)	i
COc1ccccc1NC(=O)N1Cc2ccccc2-n2cccc2C1c1cccs1 (stereo not given)	i

Other records follow.
SMILES	Methyltransferases
C/C=C(\C)C(=O)O[C@H]1CC2C(=C1C)[C@H]1OC(=O)[C@](C)(O)[C@]1(O)[C@H](OC(=O)CCC)C[C@@]2(C)OC(C)=O (stereo not given in full)	i
Cc1ccc(NC(=O)N2Cc3ccccc3-n3cccc3C2c2ccccc2Cl)cc1C (stereo not given)	i
c1ccc([C@@H]2C[C@H]2NC2CCNCC2)cc1	u
CCc1ccccc1NC(=O)N1Cc2ccccc2-n2cccc2C1c1ccc(SC)cc1 (stereo not given)	i
CC(C)(C)c1cc(C(C)(C)C)c2c(c1)C(O)(C(F)(F)F)C(=O)O2 (stereo not given)	u
Cc1ccc(C2c3cccn3-c3ccccc3CN2C(=O)NC2CCCC2)cc1 (stereo not given)	i
CC(C)=C1CC[C@]23CO[C@H](C2)[C@@](O)(C(=O)O)CCC13 (stereo not given in full)	i
O=C(Nc1ccccc1Cl)N1Cc2ccccc2-n2cccc2C1c1cccs1 (stereo not given)	i
C=CC(C)(O)CC/C=C(\C)C(=O)O[C@H]1[C@H](O)[C@@H](CO)O[C@@H](OC(=O)[C@]23CCC(C)(C)CC2C2=CCC4[C@@]5(C)CC[C@H](O[C@@H]6O[C@H](CO[C@@H]7OC[C@H](O)[C@H](O)[C@H]7O[C@@H]7OC[C@@H](O)[C@H](O)[C@H]7O)[C@@H](O)[C@H](O)[C@H]6O)C(C)(C)C5CC[C@@]4(C)[C@]2(C)CC3)[C@@H]1OC1OC(C)C(O[C@@H]2OC[C@@H](O)[C@H](O[C@@H]3OC[C@@H](O)[C@H](O)[C@H]3O)[C@H]2O)C(O)C1O (stereo not given in full)	i
Cc1cccc(NC(=O)c2ccc(C(F)(F)F)cc2C(=O)O)n1	i
COc1ccc(OC)c(C(O)C(C)N)c1 (stereo not given)	i
CC(=O)N1CCCC2(CC(c3cccnc3)=NO2)C1 (stereo not given)	i
CCc1ccccc1NC(=O)N1Cc2ccccc2-n2cccc2C1C (stereo not given)	i
CC1=NOC2(CCN(Cc3cc(C)on3)C2)C1 (stereo not given)	i
CC1c2cccn2-c2ccccc2CN1C(=O)Nc1ccccc1Br (stereo not given)	i
CC(=O)OC[C@]12C[C@H](OC(=O)CC(C)C)C(C)=C[C@H]1O[C@@H]1[C@H](O)C[C@@]2(C)[C@]12CO2	i
COc1ccc(C(=O)NC[C@H]2C[C@@H]3CCN2C[C@@H]3c2cc(-c3cccs3)nn2C)cc1	i
CCC1c2cccn2-c2ccccc2CN1C(=O)Nc1cccc2c1CCCC2 (stereo not given)	i
COCC1CN(C)CC12CCN(C(=O)c1cncc(C)c1)CC2 (stereo not given)	i
CC(C)NP(=O)(NC(C)C)OP(=O)(NC(C)C)NC(C)C	i

Gathered by group, the entries above containing four or more nitrogen atoms (three)
SMILES	Methyltransferases
CCC1(N2CCN(C(=O)COc3ccc(Cl)cc3C)CC2)CCN(C(=O)NC)C1 (stereo not given)	i
COc1ccc(C(=O)NC[C@H]2C[C@@H]3CCN2C[C@@H]3c2cc(-c3cccs3)nn2C)cc1	i
CC(C)NP(=O)(NC(C)C)OP(=O)(NC(C)C)NC(C)C	i

Next entries follow.
SMILES	Methyltransferases
C[C@@]1(C(=O)O)CC[C@]2(C)CC[C@]3(C)C4=CC(=O)c5cc(O)c(O)cc5[C@]4(C)CC[C@@]3(C)[C@@H]2C1	i
O=C1C=CC[C@@H]2[C@H]3CCCN4CCC[C@@H](CN12)[C@@H]34	i
CCc1cnc(N2CCC3(CC2)C(=O)Nc2cc(OCC4CC4)c(OC)cc23)nc1	i
CCN1C[C@]2(OC(=O)c3ccccc3NC(C)=O)CC[C@H](OC)[C@@]34[C@@H]2C[C@@H]([C@@H]13)[C@@]1(O)C[C@H](OC)[C@H]2C[C@@H]4[C@]1(O)[C@H]2OC	i
CC1CCCC(O)CCC/C=C/c2cc(O)cc(O)c2C(=O)O1 (stereo not given)	i
O=C(Nc1ccc(F)cc1F)N1Cc2ccccc2-n2cccc2C1c1cc(F)cc(F)c1 (stereo not given)	i
C[C@H](N)CN1CCc2ccc(Br)cc21	i
CCOC(=O)C1CCC(CNC(=O)N2Cc3ccccc3-n3cccc3C2CC)CC1 (stereo not given)	i
CCOc1ccc(C2c3cccn3-c3ccccc3CN2C(=O)NCc2ccc(C)cc2)cc1 (stereo not given)	i
NCCc1ccc(S(=O)(=O)F)cc1	i
Cc1cc(C)cc(NC(=O)N2Cc3ccccc3-n3cccc3C2c2ccccc2C)c1 (stereo not given)	i
CCOc1ccc(NC(=O)N2Cc3ccccc3-n3cccc3C2c2ccccc2C)cc1 (stereo not given)	i
Cc1ccc(CNC(=O)N2Cc3ccccc3-n3cccc3C2c2ccc(F)cc2)cc1 (stereo not given)	i
Cc1ccccc1C1c2cccn2-c2ccccc2CN1C(=O)Nc1ccc(Br)cc1 (stereo not given)	i
CCCN1CCC[C@@H]2Cc3[nH]ncc3C[C@H]21	i
CCCCOC(=O)c1ccnc2cc(C(OCCN3CCCCC3)c3ccccc3C)sc12 (stereo not given)	u
CCOC(=O)Cc1ccc(NC(=O)N2Cc3ccccc3-n3cccc3C2c2ccc(C)cc2)cc1 (stereo not given)	i
CCOc1ccccc1-n1c(C(C)N2CCN(C(=O)COc3ccc(Cl)cc3)CC2)nc2ccccc2c1=O (stereo not given)	i
CC(C)(C)NCC(O)c1ccccc1Cl (stereo not given)	i
COc1ccc(C2c3cccn3-c3ccccc3CN2C(=O)Nc2cc(F)ccc2F)cc1 (stereo not given)	i
COc1ccc(NC(=O)N2Cc3ccccc3-n3cccc3C2c2cc(F)cc(F)c2)c(OC)c1 (stereo not given)	i
CC(C)c1ccc(C2c3cccn3-c3ccccc3CN2C(=O)Nc2cc(F)ccc2F)cc1 (stereo not given)	i
CN1CCN(C(=O)Cc2c[nH]c3ncc(-c4cccc(O)c4)cc23)CC1	i
CCOCCCNC(=O)N1Cc2ccccc2-n2cccc2C1c1ccccc1Cl (stereo not given)	i
CCC(C)C1NC(=O)C2CCCN2C(=O)C(CC(C)C)OC(=O)CCNC(=O)C(C)N(C)C(=O)C(C(C)C)N(C)C1=O (stereo not given)	i
COc1ccc(C2c3cccn3-c3ccccc3CN2C(=O)Nc2cccc(Cl)c2)cc1 (stereo not given)	i
CO[C@H]1C[C@H](O[C@H]2CC[C@]3(C=O)[C@H]4CC[C@]5(C)[C@@H](C6=CC(=O)OC6)CC[C@]5(O)[C@@H]4CC[C@]3(O)C2)O[C@H](C)[C@H]1O	i
CCOC(=O)C1CCC(CNC(=O)N2Cc3ccccc3-n3cccc3C2C)CC1 (stereo not given)	i
COc1cccc(CC(=O)N2CCCCCC2CN2CCCC2)c1 (stereo not given)	i
C=C1C(=O)CC2OC2(C)CC2OC(=O)C(=C)C2C(O)C1OC(=O)/C(C)=C\C (stereo not given)	u
CCc1c(C(=O)C(N)=O)c2c(OCC(=O)OC)cccc2n1Cc1ccccc1	i
COc1ccsc1CNCC[C@@]1(c2ccccn2)CCOC2(CCCC2)C1	i
CCC(C)C1NC(=O)C2CCCN2C(=O)C(CC(C)C(=O)O)OC(=O)CCNC(=O)C(C)N(C)C(=O)C(C(C)C)N(C)C1=O (stereo not given)	i
COc1ccc(C2c3cccn3-c3ccccc3CN2C(=O)Nc2cccc(Cl)c2)cc1OC (stereo not given)	i
CCOc1ccc(C2c3cccn3-c3ccccc3CN2C(=O)Nc2cccc(C(F)(F)F)c2)cc1 (stereo not given)	i
CC[C@H]1CN2CC[C@H]1C[C@@H]2[C@@H](O)c1ccnc2ccc(OC)cc12	i

Not all compounds are listed. The share of hits here may be higher or lower than overall.
